Assay outcomes (PubChem BioAssay)
CSC inhib – blocks cancer stem cells. 300,000 compounds, 1.1% hits. inhibition, % at 7.5 µM. cancer stem cell-like cells viability, luminescence. AID 2717;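 active = mean at 75% or more and at least half the replicates too; inconclusive = mean and replicates disagree; tested in HMLE shEcad cells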;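 also: 0% = median of negative and 100% = median of positive control wells; the first replicate is given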
MT1-MMP act inh – MT1-MMP (human) activation inhibition; P50281; HT1080 RFP-PRO-GFP cells, GFP/RFP ratio fluorescence, overnight; percent of plate control window, DMSO zero; GFP/RFP ratio change, % at 20 µM; 360,000 compounds, 0.061% hits;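 active = GFP/RFP ratio change of at least 30% with cell ATP level not reduced by more than half and red fluorescence within 50% of control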; also: strong numbers were not always called active
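Compound: 20 µM single dose, 1% DMSO / System: HT1080 RFP-PRO-GFP cells / Controls: DMSO and RFP-L50D-GFP cell wells / Read-out basis: GFP/RFP fluorescence ratio / Schedule: overnight compound exposure at 37 °C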
PABP polyA inh – PABP-poly(A) binding inhibition. P11940. PABP-poly(A) RNA binding, fluorescence polarization. inhibition, % at 35 µM. 290,000 compounds, 1% hits;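 active = 50% or more with normal probe brightness, or confirmed in later tests; inconclusive = above 50% with abnormal brightness, or retests that disagree; inactive = below 50% or failed in later tests; about a fifth of its hits are not listed in these tables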;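 also: calls also rest on retests at 20 µM and on dose response follow-up; controls were probe without protein and protein plus probe with vehicle; some compounds called inactive have numbers as strong as hits; many hits fall short of the cut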
Target sequence (P11940 whole entry, looked up): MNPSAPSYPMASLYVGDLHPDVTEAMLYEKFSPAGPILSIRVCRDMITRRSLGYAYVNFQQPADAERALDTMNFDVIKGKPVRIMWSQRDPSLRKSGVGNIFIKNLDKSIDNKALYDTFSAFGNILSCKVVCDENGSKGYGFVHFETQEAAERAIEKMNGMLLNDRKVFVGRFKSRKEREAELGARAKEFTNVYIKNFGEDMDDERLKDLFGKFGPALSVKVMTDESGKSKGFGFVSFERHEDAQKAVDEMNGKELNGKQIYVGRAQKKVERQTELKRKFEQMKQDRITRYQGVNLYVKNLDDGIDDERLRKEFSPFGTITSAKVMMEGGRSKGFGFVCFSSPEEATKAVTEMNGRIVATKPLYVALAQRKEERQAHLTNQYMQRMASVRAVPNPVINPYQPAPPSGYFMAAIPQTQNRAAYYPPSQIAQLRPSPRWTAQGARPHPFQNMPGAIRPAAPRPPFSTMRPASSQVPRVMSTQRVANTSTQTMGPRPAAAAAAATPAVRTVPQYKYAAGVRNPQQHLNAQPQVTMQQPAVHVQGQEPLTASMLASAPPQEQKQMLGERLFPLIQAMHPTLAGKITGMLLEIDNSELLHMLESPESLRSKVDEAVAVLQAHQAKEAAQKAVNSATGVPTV
eIF4H FP inh – inhibitors of RNA binding by human eIF4H; Q15056; 290,000 compounds, 0.94% hits; eIF4H fluorescence polarization binding assay; inhibition, % at 35 µM; AID 2012;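 active = 50% or more with normal probe brightness, or confirmed in later tests; inconclusive = above 50% with abnormal brightness, or retests that disagree; inactive = below 50% or failed in later tests; about a fifth of its hits are not listed in these tables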;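 also: calls also rest on retests at 20 µM and on dose response follow-up; 0% = protein and probe with vehicle and 100% = probe without protein; strong numbers were not always called active; many hits fall short of the cut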
Rce1 inh – blocks yeast Ras-converting enzyme; Q03530; calls only; yeast membranes, quenched prenylated peptide cleavage fluorescence; 290,000 compounds, 0.27% hits;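 active = fall in fluorescence gain of 50% or more versus controls, with final raw signal at or below 3038400; inconclusive = same 50% fall but final raw signal above 3038400; inactive = fall in fluorescence gain under 50%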;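 also: plate controls were neutral control wells for no effect and wells lacking membranes for full effect; tested at 10 µM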
Target sequence (Q03530 whole entry, looked up): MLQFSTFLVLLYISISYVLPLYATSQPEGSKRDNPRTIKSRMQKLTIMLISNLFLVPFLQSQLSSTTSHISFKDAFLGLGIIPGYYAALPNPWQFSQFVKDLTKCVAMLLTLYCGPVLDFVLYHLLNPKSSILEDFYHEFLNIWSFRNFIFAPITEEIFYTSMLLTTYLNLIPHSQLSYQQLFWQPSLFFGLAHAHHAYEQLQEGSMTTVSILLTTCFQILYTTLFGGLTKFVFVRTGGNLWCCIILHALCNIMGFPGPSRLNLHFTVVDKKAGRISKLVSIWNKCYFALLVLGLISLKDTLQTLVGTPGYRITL
Yeast UUG start – yeast start codon fidelity modulation | S. cerevisiae UUG-firefly luciferase reporter, luminescence/redox ratio | activity score, % at 18.7 µM | 350,000 compounds, 0.13% hits | AID 602363;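 active = replicate mean at a twofold rise or more, about +100% in these data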;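 also: firefly luciferase made from a UUG start codon reports start codon fidelity; reporter light over untreated wells divided by growth signal over untreated wells; some hits fall short of that in this replicate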
Env fusion inh – blocks HIV Env-driven cell-cell fusion; 360,000 compounds, 1.1% hits; HeLa-JRFL Env/CEM21 cell fusion, luciferase; inhibition, % at 12.3 µM;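 active = mean replicate inhibition score of at least 50 and every replicate individually at or above 50; inconclusive = only one of the two criteria met; inactive = mean below 50 and not all replicates reaching 50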;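 also: 0% = plate neutral controls and 100% = maraviroc near 300 nM; one replicate is shown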
eIF4H FP inh retest – further read-out of eIF4H FP inh, marked with its call; inhibition, %; compound at 20 µM; confirmation average;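 mean of two retest wells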
PABP polyA inh retest – second read-out of PABP polyA inh, no call of its own (marks repeat the call); inhibition, %; compound at 20 µM; confirmation repeats;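 mean of two retest wells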
MT1-MMP act inh RFP – recorded beside MT1-MMP act inh, whose call it bears; RFP signal change, %; measured here: RFP expression control read;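 0 = vehicle wells; hits needed this value within 50% of zero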
* = called active by the depositor; i = inactive; ? = inconclusive; . = not tested or not shown; & = joins results of further samples; [ ] = another dose, or the depositor's remark. Not a hit list; any-hit rate near 2.9%.

SMILES	CSC inhib	MT1-MMP act inh	MT1-MMP act inh RFP	PABP polyA inh	eIF4H FP inh	Rce1 inh	Yeast UUG start	Env fusion inh	others
COc1nc(OC)nc(N2CCC(C(=O)Nc3cccc4ccccc34)CC2)n1	2	3	3	-7	-6	i	-10	20
COc1cccc(NC(=O)c2ccc3snnc3c2)c1	0	0	2	-2	5	i	.	.
Cc1ccc(NC(=O)NCc2cccnc2)cc1C	-7	2	3	-13	-2	i	-6	-1
CCOc1ccc(C(=O)NCC(=O)OCC(=O)Nc2ccccc2OCC)cc1	-2	2	4	-1	-7	.	-6	-43
O=C(CN(C(=O)CNS(=O)(=O)c1ccccc1)C1CCCC1)NCC1CCCO1 (stereo unspecified)	-10	-7	-3	-8	4	i	-17	.
CCc1cc(=O)oc2c(C)c(OCC(=O)NCc3ccccn3)ccc12	0	-5	3	-3	-10	i	-10	4
COCc1ccc(C(=O)N2CCCC(CNC(=O)c3ccc(F)cc3)C2)o1 (stereo unspecified)	-7	-2	0	-3	13	i	-11	4
COc1cccc2c1CCC(NC(C)=O)C2=O (stereo unspecified)	-11	-4	5	1	-3	i	-16	.
Cc1nc2c(cnn2-c2ccc(Cl)cc2)c(=O)n1-c1ccc(N2CCC(C)CC2)cc1	.	.	.	0	-9	i	.	.
CN(CCOc1ccc(Br)cc1)C(=O)CNC(=O)c1ccc2ccccc2c1	8	1	1	-3	0	.	-9	3
N#Cc1c(-c2ccccc2)ccnc1N1CCOCC1	3	0	4	-2	-4	i	.	-10
OC(c1ccccc1)c1ccncc1 (stereo unspecified)	3	4	0	.	.	i	-17	-20
O=[N+]([O-])c1ccc(N2CCN(S(=O)(=O)c3ccc(Cl)c(Cl)c3)CC2)cc1NCCN1CCOCC1	-1	.	.	2	-8	i	.	-45
COc1ccc(CNC(=O)CCc2cc(OC)c(OC)c(OC)c2)cc1	-17	-2	1	9	0	i	8	-9
c1csc(CNc2nc3ccccc3n2CCN2CCOCC2)c1	3	-1	1	9	-6	i	-3	1
CC(=O)NC(Cc1ccc(F)cc1)C(=O)NC1CCN(c2ncccc2[N+](=O)[O-])CC1 (stereo unspecified)	-8	0	2	?	1	i	.	-1
O=[N+]([O-])c1ccc(N=NN(CCO)CCO)cc1	5	0	3	-2	2	.	.	-115
COc1ccc(-c2n[nH]c(=S)n2CC(C)C)cc1	7	4	5	3	2	i	-17	-43
O=C(CSc1ccc(F)cc1)NC1CCCCC1	6	-1	-2	7	0	i	.	7
CCOC(=O)c1sc2ccccc2c1OC(=O)c1ccc(C)cc1	5	-1	3	0	4	i	.	.
COc1ccc(-c2cc(C(=O)Nc3sc4c(c3C#N)CCCC4)c3ccccc3n2)cc1	18	-3	-3	-6	-7	.	-14	.
CC(NC(N)=O)C(=O)Nc1ccc(Cl)c(S(=O)(=O)Nc2ccc(Br)cc2)c1 (stereo unspecified)	.	0	-3	-3	-4	i	-4	2
COc1ccc(C(=O)CC(=O)C(=O)Nc2ccc(OC)c(Cl)c2)cc1	-3	4	1	5	6	i	0	-5
Cc1cccc(C)c1NC(=S)N(CCN(C)C)Cc1cccs1	-14	-3	0	-3	3	i	.	-22
CCOc1ccc(S(=O)(=O)N2CCCC(C(=O)N3CCOCC3)C2)cc1 (stereo unspecified)	1	0	-3	-10	-1	i	-22	18
Cc1cc(C)c(OCC(=O)Nc2ccc3c(c2)OCO3)cc1C	-1	7	-1	-2	2	i	-14	-61
CC(C(=O)Nc1cc([N+](=O)[O-])ccc1Cl)N1CCN(c2ccccc2O)CC1 (stereo unspecified)	-9	2	-2	0	10	i	.	.
Cc1ccc(OCCNC(=O)CNC(=O)c2ccc3c(c2)OCO3)cc1	1	0	-4	.	.	i	-7	.
COc1ccc(N(CC(=O)N2CCc3ccccc3C2)S(=O)(=O)c2c(C)[nH]c(=O)[nH]c2=O)cc1	-4	0	7	2	6	i	-19	-8
Cc1ccc(C(=O)c2c[nH]cc2-c2ccccc2)cc1	-4	7	6	-9	3	i	-15	6
COc1ccc(-c2cc3ccc(OCC(=O)NCC4CCC(C(=O)O)CC4)cc3oc2=O)cc1 (stereo unspecified)	5	-8	-5	-3	-2	i	-27	.
CSCCOC(=O)c1[nH]c2c(c1C)C(=O)CC(c1ccco1)C2 (stereo unspecified)	55	1	-9	-2	90	i	-19	-421	eIF4H FP inh retest=8;PABP polyA inh retest=-10
O=C(N/N=C/c1cccc2cccnc12)[C@H]1C[C@@H]1c1ccccc1	13	5	-5	-9	-6	i	.	-5
COC(=O)Cn1c(C(O)c2ccccc2)nc2ccccc21 (stereo unspecified)	-10	0	8	6	-2	i	-13	-20
COc1ccccc1CC(=O)NC1CCC(C)CC1 (stereo unspecified)	1	-1	0	-2	-8	i	.	5
CC(OC(=O)c1ccccc1NCCO)C(=O)Nc1ccc(S(=O)(=O)N2CCOCC2)cc1 (stereo unspecified)	-9	0	0	.	.	i	-2	-2
Cc1noc(C)c1S(=O)(=O)N1CCCC(C(=O)NCc2ccccn2)C1 (stereo unspecified)	8	2	-6	7	-3	i	-18	.
O=c1c(Cl)c(N2CCOCC2)cnn1-c1nc2ccccc2[nH]1	4	7	8	20	-1	i	.	-11
O=C(c1ccccc1)c1ccc(Sc2ccc([N+](=O)[O-])cc2)cc1	12	5	-7	2	-11	i	.	9
CCCCc1nc(NCCO)c(C#N)c2c1CCCC2	40	-8	-20	-7	-9	i	-5	1
CC(=O)Nc1ccc(NC(=O)CSc2ccc(C)cc2)cc1	-14	3	1	3	3	i	-32	-8
Cc1cc(=O)[nH]c(NN=Cc2cc(Br)ccc2O)n1	.	4	-3	.	.	.	-16	26
O=C(O)c1ccc(S(=O)(=O)N2CCCC2)cc1	-1	-2	2	1	1	i	-16	6
O=C(Nc1ccc(Cl)cc1)c1ccc2sc([C@@H]3O[C@H](CO)[C@@H](O)[C@H]3O)nc2c1	.	3	-5	.	.	.	-8	-19
O=C(Nc1ccccc1Cl)c1cnccn1	-3	2	0	9	-10	i	-18	-38
CCS(=O)(=O)N1CCC(C(=O)Nc2ccc3c(c2)CCC3)CC1	-5	-1	-1	3	8	i	-5	-8
CCOc1ccc(N(Cc2cc3ccc(C)cc3[nH]c2=O)C(=O)COC)cc1	-8	2	3	3	-4	i	-15	.
CCC(=O)c1ccc(OCc2ccc(C(=O)OC)cc2)cc1	19	0	0	7	5	i	1	-29
CC(NCc1cc(Br)ccc1OCC(N)=O)C12CC3CC(CC(C3)C1)C2 (stereo unspecified)	9	7	-1	-7	9	i	-5	10
O=C(Oc1ccccc1)N1CCCC1	-6	6	2	3	-4	i	-13	-5
COC(=O)C1=C(C)NC(=S)NC1c1sccc1C (stereo unspecified)	-12	4	4	?	-8	i	.	6
Cc1ccnc(Nc2nc(-c3ccc(O)c(O)c3)cs2)c1	68	-10	-25	-2	8	.	-25	-54
CCOC(=O)C1=NN(c2ccccc2)C2=NC(C)=C(C(=O)OC)C(c3cccs3)N12 (stereo unspecified)	-5	0	3	.	.	i	-13	23
Cc1nn(CC(=O)NCc2cccnc2)c(C)c1[N+](=O)[O-]	-10	3	3	27	-1	i	.	3
Cc1sc2nc3c4ccccc4c(NCc4ccco4)nn3c(=O)c2c1C	.	0	1	26	36	.	-9	.
CCOc1ccc(C2CC(=O)N(Nc3ccc([N+](=O)[O-])cc3[N+](=O)[O-])C2=O)cc1 (stereo unspecified)	-14	7	-4	-4	-6	i	.	5
CC(C)CCNC(=O)CCCc1ccccc1	-1	2	1	6	17	i	-12	-13
O=C(O)C(Cc1c[nH]c2ccccc12)N1C(=O)C2C3c4ccccc4C(c4ccccc43)[C@@H]2C1=O (stereo partly specified)	-2	6	4	9	1	i	6	-6
CSCCC(NC(C)=O)C(=O)OCC(=O)N(c1ccccc1)c1ccccc1 (stereo unspecified)	-11	-2	-4	5	-4	i	.	.
CCOC(=O)N1CCC(Nc2c(NCCCN3CCN(CC)CC3)c(=O)c2=O)CC1	-7	-1	4	-2	-7	i	.	-30

(further entries)
SMILES	CSC inhib	MT1-MMP act inh	MT1-MMP act inh RFP	PABP polyA inh	eIF4H FP inh	Rce1 inh	Yeast UUG start	Env fusion inh	others
CC(=O)c1c(N2CCN(c3ccccn3)CC2)nc(=S)n(-c2ccccc2)c1C	-6	3	7	1.9*	?	i	.	-3	PABP polyA inh retest=87*
CC(C)(C)OC(=O)C[C@@H]1C/C=C\C[C@@H](CC(=O)N[C@@H](CO)Cc2ccccc2)C(=O)N2CCC[C@H]2COC1=O	-16	3	4	.	.	.	20	10
N#Cc1c(SCC(N)=O)nsc1SCc1ccc(Cl)cc1	10	-7	0	8	18	i	-5	?
CC(=O)c1ccc2c(c1)Cc1cc(C(C)=O)ccc1-2	.	0	0	-4	-10	i	.	-90
CN(C(=O)COC(=O)c1cc([N+](=O)[O-])ccc1N1CCOCC1)C1CCCCC1	.	2	4	.	.	.	-8	-1
CCOC(=O)c1c(C)nn(-c2ccc(NC(=O)c3cccs3)cc2)c1C	17	2	1	-2	9	i	-21	0
CCc1ccc[n+](-c2[nH]c(=O)sc2/C=N/N=C(\[O-])c2ccncc2)c1	5	1	-1	-6	-9	i	.	-4
CC1CC(C)CN(S(=O)(=O)c2cc3c4c(c2)CCN4C(=O)CC3)C1 (stereo unspecified)	-3	2	2	.	.	i	-17	19
Cc1sc2nc(SC(C)C)nc(N)c2c1C	-7	10	2	-12	-14	i	-8	.
C[C@H](CO)N1C[C@H](C)[C@H](CN(C)Cc2ccccc2)Oc2ncc(Br)cc2C1=O	.	-2	2	.	.	.	-4&-13&-3&-8	-48&-22&0[16.7 µM]
COC(=O)c1ccccc1N1C(=O)[C@@H]2C(c3ccc(F)cc3)=NO[C@@H]2C1=O	-2	1	5	-6	-2	i	-13	-54
Cn1cccc1C(=O)NC1CCCCCC1	.	1	-1	.	.	.	-21	-30
O=C(CCc1ccncc1)NC1CCCc2c1cnn2-c1cc(F)cc(F)c1 (stereo unspecified)	11	-2	-5	7	-2	i	-18	.
COc1ccc(CN2CCC3CC2c2cc(Cl)ccc23)cc1 (stereo unspecified)	.	-1	4	.	.	.	-27	29
CC(OC(=O)CCc1nc2ccccc2c(=O)[nH]1)C(=O)c1ccc(C(C)(C)C)cc1 (stereo unspecified)	-3	0	-3	17	-6	i	.	15
Nc1n[nH]c(-c2ccc([N+](=O)[O-])cc2[N+](=O)[O-])n1	.	-2	0	9	12	i	.	13
O=C(COC(=O)c1ccccc1OC(F)F)Nc1ccc(N2CCCCC2)cc1	.	8	4	.	.	.	-16	-7
O=c1c2ccccc2oc2cc(Br)ccc12	.	0	5	.	.	.	-14	-86
COc1ccc(S(=O)(=O)N2Cc3ccccc3CC2C(=O)N2CCOCC2)cc1 (stereo unspecified)	3	-1	0	26	-5	i	-1	.

For reference, part of the list above.
SMILES	CSC inhib	MT1-MMP act inh	MT1-MMP act inh RFP	PABP polyA inh	eIF4H FP inh	Rce1 inh	Yeast UUG start	Env fusion inh	others
O=C(COC(=O)c1ccccc1OC(F)F)Nc1ccc(N2CCCCC2)cc1	.	8	4	.	.	.	-16	-7
O=c1c2ccccc2oc2cc(Br)ccc12	.	0	5	.	.	.	-14	-86
COc1ccc(S(=O)(=O)N2Cc3ccccc3CC2C(=O)N2CCOCC2)cc1 (stereo unspecified)	3	-1	0	26	-5	i	-1	.
